From PubChem
AF4-AF9 inh: inhibitors of AF4 peptide binding to AF9, primary screen, biochemical, AlphaScreen, biotin-AF4 peptide, FLAG-AF9, single point | inhibition, % at 10 µM | 350,000 tested, 0.47% active;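 active = every replicate reaching a set inhibition limit, whatever the replicate mean, cut at about 25% in these data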;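 also: 0% = plate neutral control median and 100% = total signal loss; the record names both 10 and 1 µM as test concentration; the first replicate is given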
Target sequence (P42568 whole entry, looked up): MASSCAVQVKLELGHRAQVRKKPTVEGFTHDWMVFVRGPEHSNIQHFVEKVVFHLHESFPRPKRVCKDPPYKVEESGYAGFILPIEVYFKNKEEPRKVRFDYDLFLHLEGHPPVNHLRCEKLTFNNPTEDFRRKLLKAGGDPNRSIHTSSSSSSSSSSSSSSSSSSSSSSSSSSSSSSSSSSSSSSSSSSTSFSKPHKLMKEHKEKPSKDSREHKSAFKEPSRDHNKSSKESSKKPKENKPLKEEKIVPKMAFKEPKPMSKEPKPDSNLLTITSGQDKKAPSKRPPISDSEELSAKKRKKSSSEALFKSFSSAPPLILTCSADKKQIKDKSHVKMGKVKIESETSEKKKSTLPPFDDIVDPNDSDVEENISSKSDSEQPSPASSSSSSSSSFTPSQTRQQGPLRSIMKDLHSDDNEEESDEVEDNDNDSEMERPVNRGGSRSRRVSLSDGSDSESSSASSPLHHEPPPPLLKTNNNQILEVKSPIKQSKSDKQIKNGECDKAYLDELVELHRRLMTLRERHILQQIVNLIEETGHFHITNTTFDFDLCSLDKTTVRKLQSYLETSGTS
Active calls of the source: *; & = joins results of further samples. An excerpt; rates above refer to the full screens.

item	structure	AF4-AF9 inh
1	O=C(O)c1cccc(-c2csc(C(O)(c3ccccc3)C(F)(F)F)n2)c1 (stereo not given)	0.8
2	CCCNC(=O)C1(C)CCN(C(=O)c2ccc3c(c2)CCO3)C1 (stereo not given)	-0.3
3	Cc1noc(C)c1S(=O)(=O)Nc1ccc2c(c1)CC(=O)N([C@@H](C)CO)C[C@H](C)[C@@H](CN(C)C(=O)Nc1cccc3ccccc13)O2	-2.1
4	CCCNC(=O)N(C)C[C@H]1Oc2cc(-c3cccnc3)ccc2S(=O)(=O)N([C@H](C)CO)C[C@H]1C	2.1
5	COCC(=O)N(C)C[C@@H]1Oc2ncc(-c3ccc(C)cc3)cc2C(=O)N([C@@H](C)CO)C[C@@H]1C	-4.1
6	NC(=O)c1c(N)[nH]c(C(=O)c2ccccc2)c1-c1ccccc1	-2.6
7	C[C@@H]1CN([C@H](C)CO)C(=O)c2cc(NS(=O)(=O)c3ccc(F)cc3)ccc2O[C@H]1CN(C)S(=O)(=O)c1ccc(Cl)cc1	2.6
8	O=C(CC[C@H]1O[C@@H](n2ccc(=O)[nH]c2=O)[C@H](O)[C@@H]1O)N[C@H](Cc1ccccc1)C(=O)NCc1ccco1	2.3
9	O=C(NCCc1ccccc1)C1Cc2c(-c3ccc4c(c3)OCO4)ccnc2O1 (stereo not given)	5.3
10	C[C@@H]1CN([C@@H](C)CO)C(=O)c2cc(C#CC3CCCCC3)cnc2O[C@H]1CN(C)Cc1cncnc1	4.2
11	C[C@@H]1CN([C@@H](C)CO)C(=O)c2cc(NS(=O)(=O)c3cn(C)cn3)ccc2O[C@@H]1CN(C)Cc1ccc(Oc2ccccc2)cc1	5.8
12	O=C(Cc1ccncc1)Nc1ccc2c(c1)[C@@H]1C[C@H](CC(=O)NC3CCCC3)O[C@@H](CO)[C@@H]1O2	0.1
13	O=C(C[C@H]1CC[C@@H]2[C@H](COC[C@H](O)CN2C(=O)c2cnccn2)O1)N1CCN(c2ccccc2)CC1	2.8
14	N#C[C@@H]1[C@H](c2ccc(C3=CCCCC3)cc2)[C@@H](CO)N1C(=O)Cc1ccncc1	4.5
15	CCOC(=O)C1=C[C@@H](c2ccccc2)N(S(=O)(=O)c2ccc(C)cc2)[C@H]1c1ccc(F)cc1	-0.8
16	COc1ccc2c3c(n(C)c2c1)[C@H](CO)NCC31CCN(Cc2cc(F)ccc2F)CC1	25.5*
17	C[C@@H]1CN([C@H](C)CO)C(=O)c2cc(NC(=O)C3CC3)ccc2O[C@H]1CN(C)C(=O)Nc1cccc2ccccc12	-3.0
18	CC(C)NC(=O)N1[C@@H]2CNC[C@H]1C2c1ccc(-c2cccc(C#N)c2)cc1 (stereo not given in full)	-1.2&-4.8
19	C[C@H]1CN([C@@H](C)CO)C(=O)Cc2cc(NC(=O)Nc3ccc4c(c3)OCO4)ccc2O[C@@H]1CN(C)Cc1ccc(C(=O)O)cc1	0.1
20	CC(C)NC(=O)N(C)C[C@H]1Oc2cc(-c3ccncc3)ccc2S(=O)(=O)N([C@H](C)CO)C[C@@H]1C	-1.1
21	O=C(NCC(F)(F)F)[C@@H]1[C@@H](CO)[C@@H]2Cn3c(ccc(-c4ccncc4)c3=O)[C@@H]2N1Cc1ccncc1	-0.4
22	CC(C)NC(=O)Nc1ccc2c(c1)C(=O)N([C@@H](C)CO)C[C@@H](C)[C@@H](CN(C)S(=O)(=O)c1ccccc1)OCCCC[C@H](C)O2	0.5
23	CCC(=O)N1C[C@H]2[C@@H](c3ccccc31)[C@@H](CO)N2C(=O)CC	-0.5
24	Cc1noc(C)c1S(=O)(=O)Nc1ccc2c(c1)C(=O)N([C@H](C)CO)C[C@H](C)[C@H](CN(C)Cc1ccc(C(F)(F)F)cc1)OCCCC[C@@H](C)O2	1.5
25	Cc1noc(C)c1NC(=O)Nc1ccc2c(c1)C(=O)N([C@@H](C)CO)C[C@H](C)[C@@H](CN(C)S(=O)(=O)c1ccc(Cl)cc1)OCCCC[C@@H](C)O2	1.4
26	C/C=C/c1ccc([C@H]2[C@@H](CO)N(C(=O)C3CCCC3)C23CN(C(=O)NC(C)C)C3)cc1	6.8
27	C/C=C/c1ccc2c(c1)O[C@@H](CN(C)C(=O)Nc1cc(F)ccc1F)[C@H](C)CN([C@@H](C)CO)S2(=O)=O	4.9
28	COc1cccc(NC(=O)N2[C@H](CO)[C@@H](c3ccccc3)[C@H]2CNC(C)C)c1	0.9
29	Cc1ccc(NC(=O)Nc2ccc3c(c2)C(=O)N(C)[C@H]2CC[C@@H](CC(=O)O)O[C@@H]2CO3)cc1	-3.1
30	COc1ccc(S(=O)(=O)N(C)C[C@@H]2OCCCC[C@@H](C)Oc3ccc(NC(=O)Nc4ccc5c(c4)OCO5)cc3C(=O)N([C@@H](C)CO)C[C@@H]2C)cc1	1.6
31	COc1ccc(NC(=O)Nc2ccc3c(c2)C(=O)N([C@@H](C)CO)C[C@@H](C)[C@@H](CN(C)S(C)(=O)=O)O3)cc1	-1.6
32	O=S(=O)(N[C@@H]1CC[C@@H](CCNS(=O)(=O)c2ccccc2Cl)O[C@H]1CO)c1ccccc1	-0.2
33	C[C@H](CO)N1C[C@H](C)[C@H](CN(C)C(=O)NC2CCCC2)Oc2cc(/C=C/c3ccccc3)ccc2S1(=O)=O	7.7
34	C[C@@H]1CN([C@H](C)CO)C(=O)c2cc(NC(=O)NC3CCCCC3)ccc2O[C@@H](C)CCCCO[C@H]1CN(C)Cc1ccc(C(=O)O)cc1	4.1
35	CCOc1cc(OCC)cc(C(=O)N2CCC[C@H]2C(=O)N2CCC[C@H]2C(=O)NCc2cccc(OC)c2)c1	0.8
36	Cc1noc(C)c1NC(=O)N(C)C[C@@H]1OCCCC[C@@H](C)Oc2ccc(NS(=O)(=O)c3cccs3)cc2C(=O)N([C@H](C)CO)C[C@H]1C	0.4
37	CO[C@H]1CN(C)C(=O)c2cc(NC(=O)C3CCC3)ccc2OC[C@H](C)N(CC2CCCCC2)C[C@@H]1C	3.7
38	C[C@H](CO)N1C[C@H](C)[C@@H](CN(C)C(=O)Nc2ccc3c(c2)OCO3)Oc2c(NC(=O)Nc3cccc4ccccc34)cccc2C1=O	3.6
39	C[C@@H]1CCCCO[C@@H](CN(C)C(=O)Nc2ccc(C(F)(F)F)cc2)[C@@H](C)CN([C@H](C)CO)C(=O)c2cc(NC(=O)c3ccncc3)ccc2O1	-13.7
40	C[C@H](CO)N1C[C@H](C)[C@H](CN(C)C(=O)Nc2ccccc2)Oc2cc(C#C[C@@H](C)O)ccc2S1(=O)=O	-1.8

Arranged by SMILES length (rising): 4 of the compounds above.
item	structure	AF4-AF9 inh
35	CCOc1cc(OCC)cc(C(=O)N2CCC[C@H]2C(=O)N2CCC[C@H]2C(=O)NCc2cccc(OC)c2)c1	0.8
34	C[C@@H]1CN([C@H](C)CO)C(=O)c2cc(NC(=O)NC3CCCCC3)ccc2O[C@@H](C)CCCCO[C@H]1CN(C)Cc1ccc(C(=O)O)cc1	4.1
39	C[C@@H]1CCCCO[C@@H](CN(C)C(=O)Nc2ccc(C(F)(F)F)cc2)[C@@H](C)CN([C@H](C)CO)C(=O)c2cc(NC(=O)c3ccncc3)ccc2O1	-13.7
24	Cc1noc(C)c1S(=O)(=O)Nc1ccc2c(c1)C(=O)N([C@H](C)CO)C[C@H](C)[C@H](CN(C)Cc1ccc(C(F)(F)F)cc1)OCCCC[C@@H](C)O2	1.5

Further compounds
item	structure	AF4-AF9 inh
41	COc1cccc(S(=O)(=O)N[C@H]2C=C[C@H](CC(=O)NCc3ccc(F)cc3)O[C@@H]2CO)c1	-2.1
42	O=C(N[C@H]1CC[C@@H](CCNS(=O)(=O)c2ccccc2Cl)O[C@H]1CO)c1ccc(F)cc1	1.7
43	CCCC(=O)Nc1ccc2c(c1)C(=O)N(C)C[C@H](OC)[C@H](C)CN(C(=O)CC1CC1)[C@@H](C)CO2	0.0
44	CO[C@@H]1CN(C)C(=O)c2cc(NC(=O)c3ccc(Oc4ccccc4)cc3)ccc2OC[C@@H](C)NC[C@H]1C	8.8
45	C[C@@H]1CCCCO[C@H](CN(C)S(=O)(=O)c2ccc(F)cc2)[C@@H](C)CN([C@@H](C)CO)C(=O)c2cc(NC(=O)CCCN(C)C)ccc2O1	8.2
46	Cc1ccc(S(=O)(=O)N(C)C[C@H]2Oc3c(NC(=O)NC(C)C)cccc3C(=O)N([C@@H](C)CO)C[C@@H]2C)cc1	-3.1
47	CCNC(=O)C[C@@H]1CC[C@@H]2[C@H](COC[C@H](O)CN2C(=O)c2ccccn2)O1	-2.3
48	COCC(=O)N1CCC2(CC1)CN(Cc1ccccc1F)[C@H](CO)c1[nH]c3cc(OC)ccc3c12	-3.5
49	C[C@@H]1CN([C@H](C)CO)C(=O)c2cc(-c3cccnc3)cnc2O[C@H]1CN(C)C(=O)Cc1cccnc1	-2.3
50	C[C@@H]1CN([C@H](C)CO)C(=O)c2ccccc2-c2ccccc2CO[C@H]1CN(C)S(=O)(=O)c1ccccc1	0.2
51	COC(=O)C1=C(C)N(C)C(=NCc2cccc(C(F)(F)F)c2)NC1c1ccc(F)cc1 (stereo not given)	-0.3
52	CCCNC(=O)N1CC2(CCN(CC3CCCCC3)CC2)c2c([nH]c3cc(OC)ccc23)[C@@H]1CO	-1.1
53	O=C(CC(F)(F)F)N1C[C@@H]2[C@H](c3ccccc31)[C@@H](CO)N2C(=O)Cc1ccccc1	-2.6
54	CCS(=O)(=O)N1[C@H](CO)[C@@H](c2ccccc2)C12CN(C(=O)C1CCC1)C2	-4.5
55	Cc1cccc(C)c1-c1ccc(CN2C(CC(C)C)C(=O)N(Cc3cn(CCO)nn3)CCS2(=O)=O)cc1 (stereo not given)	2.4
56	Cc1noc(C)c1NC(=O)N(C)C[C@H]1Oc2ccc(NS(=O)(=O)c3ccc(Cl)cc3)cc2CC(=O)N([C@H](C)CO)C[C@H]1C	-3.2
57	COCC(=O)N1CC(=O)N2[C@H](C1)[C@@H](c1ccc(-c3ccccc3)cc1)[C@@H]2CO	-5.3
58	C[C@@H]1CN([C@H](C)CO)C(=O)c2cc(NC(=O)Nc3ccccc3)ccc2O[C@@H](C)CCCCO[C@@H]1CN(C)C(=O)NC1CCCCC1	1.3
59	CC(C)NC(=O)Nc1ccc2c(c1)CC(=O)N([C@@H](C)CO)C[C@@H](C)[C@@H](CN(C)Cc1ccc3c(c1)OCO3)O2	-0.9
60	CC(C)c1cn(CC[C@@H]2CC[C@H](NC(=O)C3CCC3)[C@H](CO)O2)nn1	-2.0
61	O=C(C[C@H]1C[C@@H]2c3cc(NC(=O)C4CCOCC4)ccc3O[C@@H]2[C@H](CO)O1)NCC(F)(F)F	-3.5
62	Cc1cnc(CNC(=O)c2csc([C@@H]3O[C@H](CO)[C@H](O)[C@H](O)[C@H]3O)n2)cn1	1.0
63	Cc1ccccc1S(=O)(=O)N1CCCCN2[C@H](CO)[C@@H](c3ccc(C#CCN(C)C)cc3)[C@H]2C1	-1.4
64	COc1ccccc1C=C1CCc2ccccc2C1=O	8.8
65	Cc1noc(C)c1NC(=O)N(C)C[C@H]1Oc2ccc(NC(=O)CCCCCC(=O)Nc3ccccc3N)cc2CC(=O)N([C@@H](C)CO)C[C@@H]1C	1.3
66	C[C@H](CO)N1C[C@H](C)[C@H](CN(C)Cc2ccncc2)Oc2cc(C#CCN(C)C)ccc2S1(=O)=O	0.5
67	CC[C@H](C)[C@H]1CNC(=S)N1CC1CCN(CC)CC1	0.9
68	CC(=O)N1[C@@H]2CN(S(=O)(=O)c3ccccc3F)c3ccccc3[C@@H]2[C@@H]1CO	-4.8
69	O=C(c1ccccn1)N1CC[C@@H]2[C@@H](CO)Nc3ccc(Br)cc3[C@@H]21	-2.0
70	CC(C)NC(=O)Nc1cccc2c1O[C@H](CN(C)Cc1ccc(-c3ccccc3)cc1)[C@@H](C)CN([C@H](C)CO)C2=O	2.3
71	CO[C@H]1CN(C)C(=O)c2cc(NC(=O)Nc3ccccc3F)ccc2OC[C@@H](C)N(C)C[C@H]1C	-0.6
72	CO[C@@H]1CN(C)C(=O)c2cc(NS(=O)(=O)c3ccccc3F)ccc2OC[C@@H](C)N(S(C)(=O)=O)C[C@H]1C	-2.5
73	O=C1CN(Cc2ccc(F)cc2)C[C@H]2[C@H](c3ccc(-c4ccccc4)cc3)[C@@H](CO)N12	1.1
74	O=C(NC1CCCC1)N1CC(=O)N2[C@H](CO)[C@H](c3ccc(-c4ccc(F)cc4)cc3)[C@@H]2C1	-0.1
75	O=C(c1cccnc1)N1CC2(C1)[C@@H](c1ccccc1)[C@@H](CO)N2Cc1ccc(Cl)cc1	3.0
76	O=C(NC1CCCCC1)c1nc(C2CCNCC2)oc1-c1ccccc1	-1.6
77	C[C@@H]1CN([C@@H](C)CO)C(=O)c2cc(C3=CCCCC3)cnc2O[C@H]1CN(C)C(=O)c1ccncc1	-0.4
78	C[C@@H]1CN([C@@H](C)CO)C(=O)Cc2cc(NC(=O)CCCCCC(=O)Nc3ccccc3N)ccc2O[C@@H]1CN(C)C(=O)Nc1cccc2ccccc12	-5.1
79	O=C1Nc2ccccc2-n2nnnc2C1N1CCN(c2ccc(C(F)(F)F)cn2)CC1 (stereo not given)	-2.0
80	C[C@@H]1CN([C@@H](C)CO)C(=O)c2cc(NS(=O)(=O)c3cccs3)ccc2O[C@@H](C)CCCCO[C@H]1CN(C)Cc1ccc(C(F)(F)F)cc1	-0.6
81	Cc1cscc1-c1nc(NCC2CC2)nc2ccsc12	-2.2

4 entries from above in a different format:
16	COc1ccc2c3c(n(C)c2c1)[C@H](CO)NCC31CCN(Cc2cc(F)ccc2F)CC1
  AF4-AF9 inh: 25.5*

35	CCOc1cc(OCC)cc(C(=O)N2CCC[C@H]2C(=O)N2CCC[C@H]2C(=O)NCc2cccc(OC)c2)c1
  AF4-AF9 inh: 0.8

18	CC(C)NC(=O)N1[C@@H]2CNC[C@H]1C2c1ccc(-c2cccc(C#N)c2)cc1 (stereo not given in full)
  AF4-AF9 inh: -1.2&-4.8

15	CCOC(=O)C1=C[C@@H](c2ccccc2)N(S(=O)(=O)c2ccc(C)cc2)[C@H]1c1ccc(F)cc1
  AF4-AF9 inh: -0.8
